Ecoli rRNA inh – selective bacterial rRNA inhibition in E. coli | E. coli WT GFP vs humanized-ribosome RFP mutants, fluorescence, 24 h; hits give low values; DMSO median 0, no signal -100 | GFP signal change (wild-type ribosome), % (test concentration not listed) | 350,000 tested, 1.6% active | AID 720706;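 active = significant combined selectivity score with lowered wild-type GFP, culture density cut under 30%, mutant RFP and density less affected; inactive = any of these conditions unmet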; note: one replicate is shown; some compounds called inactive have numbers as strong as hits
FGF22 binding – shifts melting point of recombinant human FGF22; Q9HCT0; recombinant FGF22 thermal shift, SYPRO orange fluorescence; percent of sucrose octasulfate shift, DMSO zero; 340,000 tested, 1.5% active; AID 651658; calls only at 9.99 µM;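 active = melting point raised past a set limit in the mean and every replicate; three in four hits are not shown here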
Target sequence (Q9HCT0 whole entry, looked up): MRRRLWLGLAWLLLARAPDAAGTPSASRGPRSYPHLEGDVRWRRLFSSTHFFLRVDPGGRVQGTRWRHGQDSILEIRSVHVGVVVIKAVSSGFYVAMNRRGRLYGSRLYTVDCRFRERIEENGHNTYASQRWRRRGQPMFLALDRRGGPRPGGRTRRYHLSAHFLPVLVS
MLL AF4-AF9 inh – inhibitors of human MLL-AF4/AF9 interaction; AlphaScreen, biotin-AF4 peptide binding to FLAG-AF9; inhibition, % at 10 µM; 350,000 tested, 0.47% active; AID 651704;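 active = every replicate reaching a set inhibition limit, whatever the replicate mean, cut at about 25% in these data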;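 note: 0% = plate neutral control median and 100% = total signal loss; the record names both 10 and 1 µM as test concentration; the first replicate is given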
Target sequence (P42568 whole entry, looked up): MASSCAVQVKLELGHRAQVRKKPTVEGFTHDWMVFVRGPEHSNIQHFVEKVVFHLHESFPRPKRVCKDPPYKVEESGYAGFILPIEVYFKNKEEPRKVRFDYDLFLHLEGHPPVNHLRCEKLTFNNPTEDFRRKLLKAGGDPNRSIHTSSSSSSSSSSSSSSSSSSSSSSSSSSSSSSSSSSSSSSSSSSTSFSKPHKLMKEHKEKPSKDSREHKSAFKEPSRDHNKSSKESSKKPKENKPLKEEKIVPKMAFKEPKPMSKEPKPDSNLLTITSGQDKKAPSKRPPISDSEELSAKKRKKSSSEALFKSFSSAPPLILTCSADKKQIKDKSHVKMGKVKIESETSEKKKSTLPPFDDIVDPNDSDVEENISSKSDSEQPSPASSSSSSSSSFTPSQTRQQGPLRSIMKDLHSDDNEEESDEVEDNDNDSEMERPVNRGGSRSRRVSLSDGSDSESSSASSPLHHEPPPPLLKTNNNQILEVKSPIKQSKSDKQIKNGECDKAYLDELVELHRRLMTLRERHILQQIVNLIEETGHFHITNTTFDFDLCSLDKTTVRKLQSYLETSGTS
HNF4A DNA FP – change in binding of human HNF4 alpha to DNA | P41235 | HNF4a-FITC DNA binding, fluorescence polarization, 1 h | activity change, % at 10 µM | 360,000 tested, 0.3% active | AID 1224865; in the data active = activity change above about 30%, passing the limit was not always enough;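 note: controls were the assay level and a saturating level of protein; the project sought stronger binding though the title names inhibitors; some compounds called inactive have numbers as strong as hits; positive values seem to mean higher polarization but the record does not say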
E coli growth – inhibitors of Escherichia coli growth; OD600, 23 h; hits give low values; OD600 absorbance (no concentration beside the values); 330,000 tested, 0.21% active; AID 1053175;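 active = OD600 absorbance below the run mean of sample wells minus 3.6 SD, in any replicate, cut at about 0.56 in these data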;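 note: stock transfer was 300 nL into about 60 µL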
Vif TR-FRET – inhibitors of Vif binding to APOBEC3G peptide, primary screen, biochemical, TR-FRET, GST-Vif 1-94, biotin-A3G peptide, dose response retest (AID 1117319); 260,000 tested, 0.57% active; TR-FRET GST-Vif / biotin-A3G peptide binding; higher % means a stronger effect; test concentration not given here; strong numbers were not always called active; inhibition, %; hits with a dose series show IC50 in µM;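 active = above the screen mean plus three standard deviations and confirmed in dose response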;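 note: Vif residues 1-94 fused to GST binding biotinylated APOBEC3G peptide 110-148; 0% = full assay without inhibitor and 100% = GST in place of GST-Vif; retest series ran down from 100 µM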
ALR inh – inhibitors of human sulfhydryl oxidase ALR. P55789. purified ALR, DTT oxidation, H2O2 HRP-luminol luminescence. inhibition, % (concentration not given with the values). 290,000 tested, 3.8% active. AID 485317;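 active = mean and each replicate at 75% or more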;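 note: stock transfer was 7.5 nL into about 7.5 µL; 0% = neutral wells and 100% = wells with inactivated enzyme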
Target sequence (P55789 whole entry, looked up): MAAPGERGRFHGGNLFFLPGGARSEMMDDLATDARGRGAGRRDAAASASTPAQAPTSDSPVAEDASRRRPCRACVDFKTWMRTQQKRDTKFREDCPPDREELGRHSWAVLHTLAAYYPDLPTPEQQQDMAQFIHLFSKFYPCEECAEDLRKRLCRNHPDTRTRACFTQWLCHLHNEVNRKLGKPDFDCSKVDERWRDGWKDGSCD
Ecoli rRNA inh OD600 – second read-out of Ecoli rRNA inh, no call of its own (marks repeat the call); OD600 change, %; measured here: OD600 growth;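 optical density of the mix in the first replicate; 0 = DMSO median and -100 = no signal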
Ecoli rRNA inh RFP – second read-out of Ecoli rRNA inh, no call of its own (marks repeat the call); RFP signal change, %; measured here: RFP humanized mutant strains;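 first replicate; 0 = DMSO median and -100 = no signal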
* marks the source's active call; other numbers are inactive results; i = inactive; . = not tested or not shown. This is a subset. The share of hits here may be higher or lower than overall.

Each structure is followed by: Ecoli rRNA inh	Ecoli rRNA inh OD600	Ecoli rRNA inh RFP	FGF22 binding	MLL AF4-AF9 inh	HNF4A DNA FP	E coli growth	Vif TR-FRET	ALR inh
1	O=C(Nc1ccc(F)cc1)N[C@@H]1CC[C@H](CCNC(=O)c2cc(Cl)cc(Cl)c2)O[C@@H]1CO
    -12	-48	36	i	1.0	.	.	.	.
2	CC[C@@H](C)[C@H](CN[C@H](CNC)[C@@H](C)O)NCCc1ccc(OC)cc1
    3	11	-1.4	i	2.0	-5.5	.	.	.
3	CCOc1ccccc1CNS(=O)(=O)c1cc(-c2cc(C)no2)ccc1OC
    0	-18	4.3	i	-0.4	2.2	0.7	.	-1
4	COc1ccccc1C1=NC(c2ccc(F)cc2)N=C1C (centres undefined)
    2	2	-1.8	i	-1.3	-5.8	0.7	-7%	3
5	CCNCC(=O)N1c2ccccc2CCc2ccc(NC(=O)OCC)cc21
    .	.	.	.	.	0.9	0.69	5%	-32
6	COc1ccc(S(=O)(=O)Nc2ccc3c(c2)C(=O)N([C@@H](C)CO)C[C@@H](C)[C@@H](CN(C)C(=O)Nc2c(C)noc2C)OCCCC[C@H](C)O3)cc1
    0	-7	0.0	i	0.0	.	.	.	.
7	O=C(C[C@H]1CC[C@H](NC(=O)Nc2ccc(C(F)(F)F)cc2)[C@H](CO)O1)NCc1cccc(F)c1
    -8	-8	2.8	i	-0.6	.	.	.	.
8	c1ccc(-n2ncc3c2ncn2nc(CSc4nc5ccccc5s4)nc32)cc1
    .	.	.	.	.	1.5	0.78	.	-6
9	Cc1ccc(NC(=O)COC(=O)CCc2nc3ccccc3n2-c2ccccc2)c(C)c1
    .	.	.	.	.	0.8	0.69	-3%	-8
10	COc1ccc(CN(C)S(=O)(=O)c2nnc(NC(=O)c3cccc(OC)c3)s2)cc1
    -9	-1	-2.6	i	-5.1	-3.5	0.64	-29%	2
11	N#Cc1c(NC(=S)NC(=O)C2CCCC2)sc2c1CCCCC2
    .	.	.	.	.	-1.6	.	9%	1
12	CCc1cc(CNC(=O)C2CCC(=O)N(CCc3cccc(F)c3)C2)on1 (centres undefined)
    4	14	-0.6	i	0.6	0.4	0.67	.	.
13	COc1ccc(OC)c(S(=O)(=O)N2CCC(C(=O)NCC3CCCO3)CC2)c1 (centres undefined)
    .	.	.	.	.	-1.5	0.74	-6%	-17
14	CC(C)CC#Cc1cnc2c(c1)C(=O)N([C@@H](C)CO)C[C@@H](C)[C@H](CN(C)C(=O)CCN1CCCCC1)O2
    0	-1	-1.2	i	0.7	.	.	.	.
15	CN(CCC#N)C(=O)CSc1nnc(-c2ccco2)n1N
    8	13	-8.3	i	-1.1	4.5	0.7	.	-24
16	CC(=O)Nc1ccc(NC(=O)COC(=O)c2ccccc2SCC(=O)N2CCCC2)cc1
    2	-1	-1.7	.	-1.9	-1.6	0.68	0%	-74
17	Cc1nc2ccccc2c2oc(C(=O)Nc3ccc(C(C)C)cc3)cc12
    -20	-21	3.9	i	-2.4	6.0	0.73	-4%	-1
18	COc1cccc(S(=O)(=O)N(C)C[C@H]2Oc3ncc(C#CCC(C)C)cc3C(=O)N([C@H](C)CO)C[C@H]2C)c1
    -1	-6	-0.6	i	-0.3	.	.	.	.
19	CC(C)(C)C1CCC2(CC1)C(C#N)=C(SCC(=O)Nc1ccccc1)NC(=O)C2C#N (centres undefined)
    .	.	.	.	.	-2.1	0.72	14%	-28
20	CC(C)NC(=O)Nc1ccc2c(c1)C(=O)N([C@H](C)CO)C[C@@H](C)[C@H](CN(C)S(=O)(=O)c1cn(C)cn1)OCCCC[C@H](C)O2
    4	5	-1.3	i	-2.7	.	.	.	.
21	COc1ccccc1N(CC(=O)NC1CCCCC1)C(=O)CCC(=O)Nc1ccccn1
    .	.	.	.	.	0.5	0.76	-2%	-6
22	N#C/C(=N\Nc1cccc2ccccc12)c1nnc2n1CCCCC2
    23	16	-0.3	i	-1.4	12	.	23%	-26
23	COc1cccc(Nc2nnc(Cc3cccnc3)c3ccccc23)c1
    -9	-16	0.9	i	-0.8	1.8	0.67	-2%	1
24	Cc1cc(C)cc(N(CCC(=O)Nc2nnc(C)s2)S(=O)(=O)c2ccc(Cl)cc2)c1
    .	.	.	.	.	1.6	0.7	3%	4
25	Cc1nn2c(=O)cc(CSCC(=O)Nc3ccccc3F)nc2s1
    16	-7	0.9	i	-2.5	-3.8	0.71	.	-8
26	O=C(c1ccccc1F)N1C[C@H]2[C@@H](c3ccccc31)[C@H](CO)N2C(=O)c1cccnc1
    2	15	-2.8	i	0.8	.	.	.	.
27	O=C(Cc1ccc(Cl)cc1)NCCS(=O)c1ccc(Cl)cc1 (centres undefined)
    .	.	.	.	.	2.5	0.66	24%	-7
28	COc1ccc(NC(=O)N(C)C[C@@H]2Oc3c(NC(=O)Nc4ccccc4)cccc3C(=O)N([C@H](C)CO)C[C@@H]2C)cc1
    -12	-11	1.6	i	1.7	.	.	.	.
29	C[C@@H]1CN([C@@H](C)CO)C(=O)c2cc(NC(=O)Nc3ccccc3)ccc2O[C@@H]1CN(C)C(=O)Nc1ccc(F)cc1
    -4	-9	5.5	i	3.0	.	.	.	.
30	CC1Cc2ccccc2N1C(=O)COC(=O)c1ccc(O)cc1 (centres undefined)
    -5	2	-5.7	i	-32	0.1	0.69	22%	.

Part of the list above in order of SMILES length, ascending:
Each structure is followed by: Ecoli rRNA inh	Ecoli rRNA inh OD600	Ecoli rRNA inh RFP	FGF22 binding	MLL AF4-AF9 inh	HNF4A DNA FP	E coli growth	Vif TR-FRET	ALR inh
25	Cc1nn2c(=O)cc(CSCC(=O)Nc3ccccc3F)nc2s1
    16	-7	0.9	i	-2.5	-3.8	0.71	.	-8
24	Cc1cc(C)cc(N(CCC(=O)Nc2nnc(C)s2)S(=O)(=O)c2ccc(Cl)cc2)c1
    .	.	.	.	.	1.6	0.7	3%	4
26	O=C(c1ccccc1F)N1C[C@H]2[C@@H](c3ccccc31)[C@H](CO)N2C(=O)c1cccnc1
    2	15	-2.8	i	0.8	.	.	.	.

The main list resumes; the four compounds before the break are reprinted first.
Each structure is followed by: Ecoli rRNA inh	Ecoli rRNA inh OD600	Ecoli rRNA inh RFP	FGF22 binding	MLL AF4-AF9 inh	HNF4A DNA FP	E coli growth	Vif TR-FRET	ALR inh
27	O=C(Cc1ccc(Cl)cc1)NCCS(=O)c1ccc(Cl)cc1 (centres undefined)
    .	.	.	.	.	2.5	0.66	24%	-7
28	COc1ccc(NC(=O)N(C)C[C@@H]2Oc3c(NC(=O)Nc4ccccc4)cccc3C(=O)N([C@H](C)CO)C[C@@H]2C)cc1
    -12	-11	1.6	i	1.7	.	.	.	.
29	C[C@@H]1CN([C@@H](C)CO)C(=O)c2cc(NC(=O)Nc3ccccc3)ccc2O[C@@H]1CN(C)C(=O)Nc1ccc(F)cc1
    -4	-9	5.5	i	3.0	.	.	.	.
30	CC1Cc2ccccc2N1C(=O)COC(=O)c1ccc(O)cc1 (centres undefined)
    -5	2	-5.7	i	-32	0.1	0.69	22%	.
31	CCOC(=O)CSCc1nc(-c2ccc(Cl)cc2)oc1C
    3	0	-6.3	i	-2.0	-0.1	0.77	-2%	73
32	O=C(Oc1cccc2cccnc12)c1ccc(Br)o1
    .	.	.	.	.	-1.2	0.72	0%	-16
33	COc1ccc(-c2cc(C(=O)NCCc3ccc(S(N)(=O)=O)cc3)c3ccccc3n2)cc1
    -7	-7	3.5	i	-2.6	1.6	0.71	1%	-7
34	CCOc1cc(/C=N\NC(=O)Cn2nc([N+](=O)[O-])cc2C)ccc1OCc1cccc2ccccc12
    .	.	.	.	.	2.5	.	-2%	4
35	Cc1ccc(NC(=O)C(C)Sc2nc(=O)cc(N)n2-c2ccccc2)cc1 (centres undefined)
    .	.	.	.	.	-1.9	0.69	-4%	45
36	O=C(CSc1ccccn1)c1ccc(F)cc1
    .	.	.	.	.	5.4	0.66	3%	9
37	O=C(C[C@H]1CC[C@@H](NC(=O)c2ccccc2)[C@@H](CO)O1)NCCc1ccncc1
    2	2	0.3	i	-2.2	.	.	.	.
38	C[C@H]1CN([C@@H](C)CO)C(=O)c2cc(N(C)C)ccc2O[C@@H]1CN(C)S(=O)(=O)c1cn(C)cn1
    2	9	-1.5	i	-21	.	.	.	.
39	CCNNC(=O)C(O)(Cc1ccccc1)Cc1ccccc1
    15	14	-1.1	i	-7.6	0.1	0.68	-5%	2
40	C[C@H](CO)N1C[C@H](C)[C@H](CN(C)C)Oc2ncc(C#Cc3cccnc3)cc2C1=O
    4	8	-1.2	i	-6.2	.	.	.	.
41	O=C(Nc1ccc([N+](=O)[O-])cc1Br)c1cc2ccccc2nc1Cl
    10	4	-2.3	i	-2.1	-5.0	0.69	.	.
42	O=C(NCc1cccnc1)c1ccc(NS(=O)(=O)c2cccc([N+](=O)[O-])c2)cc1
    8	19	-2.1	i	-2.3	-0.9	0.68	6%	-7
43	CCCCCn1c(=O)[nH]c2cc(C(=O)N3CCN(Cc4ccc5c(c4)OCO5)CC3)ccc2c1=O
    .	.	.	.	.	0.8	0.72	7%	-9
44	COc1ccc(S(=O)(=O)N2CCOCC2)cc1NC(=O)c1ccncc1
    3	11	1.0	i	0.3	0.4	0.69	-4%	.
45	C[C@H](CO)N1C[C@H](C)[C@H](CN(C)C(=O)Nc2ccccc2)Oc2c(NS(=O)(=O)c3cn(C)cn3)cccc2C1=O
    4	5	-1.9	i	-2.8	.	.	.	.
46	COc1ccc(N2CCN(C(=O)C(=O)c3cn(CC(=O)N4CCCC4)c4ccccc34)CC2)cc1
    -1	4	0.8	i	1.6	4.8	.	1%	.
47	Cc1nnn(C23CC4CC(CC(CC(=O)Nc5ccc(C)c(C)c5)(C4)C2)C3)n1
    -19*	-2.7*	3.1*	i	4.9	0.3	0.7	-3%	-4
48	Cc1cc(C)c(NC(=O)Cn2nnc(C(=O)Nc3ccc(F)cc3F)c2N)c(C)c1
    25	15	3.1	i	0.8	2.4	0.65	.	-4
49	C[C@H]1CCCCO[C@H](CN(C)C(=O)c2ccccc2)[C@@H](C)CN([C@@H](C)CO)C(=O)c2cc(NC(=O)CCC(F)(F)F)ccc2O1
    -1	0	-0.3	i	-2.0	.	.	.	.
50	CC(C)C(=O)N1CCN(c2ccccc2NC(=S)NC(=O)Cc2ccccc2)CC1
    11	15	0.1	i	0.3	2.4	0.68	.	.
51	C[C@H]1CN([C@@H](C)CO)C(=O)c2ccccc2-c2ccccc2CO[C@H]1CN(C)C(=O)C1CC1
    -1	7	-1.6	i	-2.5	.	.	.	.
52	O=C(CCc1nnc2n(Cc3ccc(F)cc3)c(=O)c3ccccc3n12)NCCCN1CCOCC1
    2	7	0.4	i	1.1	-3.6	0.69	.	-4
53	COc1ccc2c3c([nH]c2c1)[C@H](CO)N(C(=O)Nc1ccc(F)cc1)CC31CN(Cc2ccc(F)cc2)C1
    -59	-77	-17	i	11	.	.	.	.
54	Cc1ccc(S(=O)(=O)N2CC=C(c3c(C)n(C)c4ccccc34)CC2)cc1
    -10	-11	39	i	2.3	3.1	0.74	.	-32

Screening results from PubChem BioAssay.
